Screens from PubChem.
NPYLR7 ag = agonists of mosquito NPYLR7 receptor, primary screen, cell-based, Aedes aegypti, calcium fluorescence, mosquito biting behavior; Aedes aegypti neuropeptide Y-like receptor 7 (NPYLR7); HEK293T NPYLR7/Galpha15, GCaMP6s calcium fluorescence; hit rate 0.15% among 270,000; AID 1259423, 2018; activation, % at 10 µM; in the data active means activation above about 40%;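 further: 0% = vehicle and 100% = reference agonist at the receptor; some compounds past the cut are filed as inactive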
NPYLR7 ag max-min = further read-out of NPYLR7 ag, marked with its call; activation, %; measured here: Max-Min RFU normalised activation; some inactives read as strong as hits;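 span of the calcium signal over five minutes; 0% = vehicle and 100% = native peptide agonist; compound fluorescence can raise it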
* = called active by the depositor; & = joins results of further samples.

SMILES	NPYLR7 ag	NPYLR7 ag max-min
Cc1ccc(C(c2c(O)cc(C)n(Cc3cccnc3)c2=O)N2CCN(c3ccccn3)CC2)cc1 (centres undefined)	12	2
C=C(C)Cn1c(=O)c2c(nc3n(-c4ccc(OCC)cc4)c(C)c(C)n23)n(C)c1=O	11	8
O=C(Cc1ccc(S(=O)(=O)N2CCCC2)s1)Nc1cccc2cccnc12	-4	-4
CC(N)c1nncn1C(C)C (centres undefined)	0	-4
CC(C)CS(=O)(=O)c1ncc(CN(C)C2CCOC2)n1Cc1ccccc1 (centres undefined)	-1	-5
COc1ccc(NC(C)=O)cc1-n1cnnc1	16	3
CC(Sc1nc2ccsc2c(=O)n1C)C(=O)Nc1ccc(Cl)c(C(F)(F)F)c1 (centres undefined)	6	4
CN1CCC1(C)C(=O)Nc1ccc2c(c1)OCO2 (centres undefined)	0	0
COCCN(CC(=O)N(Cc1ccc(F)cc1)Cc1ccc(C)s1)C(=O)c1cccs1	11	8
CCOCCCn1c(=O)c(C#N)cc2c(=O)n3ccccc3nc21	-2	-3
O=C(CSc1nnc(SCc2ccccc2)s1)NN=Cc1cccc(Br)c1	0	-4
Cc1c(Cl)c(C(F)(F)F)nn1CC(=O)Nc1cccnc1	15	16
CCCC(=O)Sc1[s+]sc2c1-c1cc(OC)ccc1NC2(C)C	-1	0
CC1CCc2c(sc3ncnc(NCC(=O)N4CCCC4)c23)C1 (centres undefined)	1	6
O=C(Cc1ccc(Br)cc1)N1CCN(S(=O)(=O)c2cc(Cl)ccc2Cl)CC1	-8	-17
CCC[C@@H](NC(N)=O)C(=O)N(C)Cc1ccccc1Br	0	-1
Oc1ccc(N=Cc2nc(-c3ccc(Cl)cc3)oc2O)cc1	2	3
NC(=O)NS(=O)(=O)c1ccc(N)cc1	-7	-8
CC(C)C[C@@H](N)C(=O)NCc1noc(C2CCCC2)n1	0	0
CC(C)N1CCC(CNC(=O)CN2CCNCC2)C1 (centres undefined)	1	2
CNS(=O)(=O)c1cc(NC(=O)CNC(=O)C2CCCCC2)ccc1C	7	4
O=C(CN1CCOCC1)N1N=C(c2ccc(F)cc2)CC1c1ccccc1F (centres undefined)	-3	2
CCC1CCCN(C(=O)Nc2sc(C)nc2C)C1 (centres undefined)	-2	-3
O=C(Nc1ccc(F)cc1)N1CCN(c2ccc(-c3ccco3)nn2)CC1	18	13
Cc1cnccc1NCCNC(=O)Cc1ccccn1	-3	-6

The results go on.
SMILES	NPYLR7 ag	NPYLR7 ag max-min
COCCN(Cc1nc(C(=O)N(CCN(C)C)Cc2ccccc2)cs1)C(=O)Nc1c(C)cccc1C	-3	1
O=C(NCCc1ccccn1)C1(Oc2ccc(Cl)cc2)CCNCC1	3	1
C=CCN(Cc1nc(N)nc(N(C)C)n1)Cc1ccc(Br)s1	18	13
Cc1c[nH]c(C(=O)N2CCOC(Cc3cccc(C(F)(F)F)c3)C2)c1 (centres undefined)	7	2
CC(C)CN(Cc1cccn1Cc1cccc(F)c1)CC(O)COCc1ccccc1 (centres undefined)	8	12
O=C1Nc2ccccc2/C1=C/c1nn(-c2ccccc2)cc1-c1ccccc1	-3	3
NC(=O)c1c(NC(=O)c2ccc(Br)cc2)sc2c1CCCC2	1	-6
O=C(O)CC1SC(=NN=Cc2ccc(I)o2)NC1=O (centres undefined)	6	6
CSc1nc(NC(=O)CCc2ccc(F)cc2)c(C(N)=O)s1	1	-6
Cc1cccn2c(CN3C[C@]4(C)C[C@H]3CC(C)(C)C4)c(C(=O)N3CCCCC3)nc12	6	2
O=C(Cc1ccc(F)cc1)NCCNc1nc(-c2ccccc2Cl)nc2cc(Cl)ccc12	-2	-1
O=C1CC(c2ccc(Cl)cc2)CC2=Nc3ccccc3NC(c3cccc(Cl)c3)C12 (centres undefined)	-7	-11
O=C(COc1c(I)cc(Cl)c2cccnc12)N1CCCC1	-11	-13
CN(c1ccccc1)c1nnc(C(O)c2ccc3ccccc3c2)s1 (centres undefined)	-5	0
C#CCn1c(O)c(N=NC(=O)CNC(=O)c2ccc(Br)cc2)c2ccccc21	-2	-12
C=CCC(O)(CC=C)c1ccc(CN(CCCOC)Cc2ccc(OC)c(OC)c2)o1	-2	1
O=C(/C=C/c1ccccc1)NCCO	-16	-30
CC1=NC2=C(C(=O)CCC2)C(c2ccsc2)C1C(=O)OCC1CCCO1 (centres undefined)	-9	-14
CCC(C(=O)N(Cc1cc(NC(=O)C2CC2)ccc1N(C)C)C(C)C)c1ccccc1 (centres undefined)	5	6
Cc1ccc2[nH]c(O)c(N=NC(=O)c3ccc4c(c3)OCO4)c2c1	15	12
CC(=O)N(Cc1ccccc1)[C@@H]1C[C@@H]2COCC[C@]2(c2ccccc2)C1	26	33
CCOC(=O)CC(=O)N1CCC(=O)N(CC(=O)OCC)c2ccccc2C(OC)C1 (centres undefined)	5	13
Cc1n[nH]c(C)c1NC(=O)CN(C)CCc1cccc2ccccc12	5	4
CC1CN(Cn2[nH]c(-c3ccc(Cl)cc3Cl)nc2=S)CCO1 (centres undefined)	0	6
OCc1ccc(CN2CCCC(CCc3ccc(F)c(F)c3)C2)o1 (centres undefined)	7	4

Next part
SMILES	NPYLR7 ag	NPYLR7 ag max-min
COCCCN(CC(=O)N(Cc1ccco1)Cc1cccn1C)C(=O)c1ccc(Cl)cc1	-7	-3
CCOc1ccccc1OC1CCN(c2ncc(S(N)(=O)=O)s2)CC1	8	4
Cc1ccc(OCCOCCn2cnc3ccccc3c2=O)c(C(C)(C)C)c1	-7	10
Cc1ccc(NC(=O)CSc2nnnn2-c2ccc(Cl)cc2)c(Br)c1	8	13
Cc1cc(N2CCN(c3nccc(CCC(F)(F)F)n3)CC2)nc(N)n1	15	2
FC(F)(F)c1ccc(Nc2nccc3[nH]c(-c4cccnc4)cc23)cc1	-6	-9
CN(CCNC(=O)c1ccc(-n2cccc2)cc1)S(C)(=O)=O	-1	0
Cc1ccc(CSc2nc3ccccc3[nH]2)cc1	6	6
Cc1cc(CC(=O)Nc2c(F)cc(Br)cc2F)no1	7	3
CCn1cnnc1CCNC1CCSCC1	0	-1
Cc1ccc(-n2c(SCC#N)nc3c(-c4ccccc4)c[nH]c3c2=O)cc1	-2	-4
O=C(c1ccco1)N(Cc1cccc(C(F)(F)F)c1)CC1CC(c2ccc(F)cc2F)=NO1 (centres undefined)	5	20
Cc1cc(C)c2[nH]c(O)c(N=NC(=O)COc3cc(C(C)C)ccc3C)c2c1	-6	-10
CC(C)S(=O)(=O)Oc1cccc(CN(Cc2ccc(F)cc2)C(=O)CC(C)(C)C)c1	2	10
Cc1noc(C)c1C(=O)N1CCCC(C(=O)c2cccc(OC(C)C)c2)C1 (centres undefined)	2	-1
COCCN1C(=O)COCc2cc(-c3cc(F)cc(Cl)c3)ccc21	-2	-1
NS(=O)(=O)c1ccsc1C(=O)N1C[C@@H]2C3CCC(CC3)[C@@H]2C1	4	-3
COc1ccc([N+](=O)[O-])cc1/C=C1/SC(N)=NC1=O	2	2
Cn1cc(CN2CCCC2c2ccc(F)cc2)c(-c2ccc3c(c2)OCCO3)n1 (centres undefined)	3	2
COc1ccc(CNC(=O)c2sc(=O)n(Cc3c(C)noc3C)c2C)cc1OC	5	2
CN1C(=S)Cc2cc(Br)ccc21	2	0
CC(C)C(C)N(Cc1nc(C(=O)O)co1)Cc1ccc(Cl)cc1Cl (centres undefined)	6	7
CC(C)NCc1nccn1Cc1cccc(F)c1	-8	5
CSc1nccc(-c2c(C)cc(C)cc2C)n1	7	6
COc1ccc(S(=O)(=O)N2CCCC(C)C2)cc1N1CCN(C(=O)c2ccc(F)cc2C(F)(F)F)CC1 (centres undefined)	22	12

(continued)
SMILES	NPYLR7 ag	NPYLR7 ag max-min
CC(C)CN1C(=O)/C(=C/c2cccs2)N(C)C1=S	26	19
CC(C)(C)OC(=O)N1CCC(CN2CCCC2c2ccc(F)cc2)CC1 (centres undefined)	31	26
O=C(Nc1cc(-c2cccc(Br)c2)ncn1)C1(c2ccccc2)CC1	14	11
COc1cccc(C(=O)N2CCN(C(C(=O)Nc3cccc(Cl)c3)C3CCCC3)CC2)c1 (centres undefined)	-2	0
CCN(CC)C(=O)C(C1CCCC1)N1CCN(C(=O)Nc2ccc(C(C)C)cc2)CC1 (centres undefined)	-7	15
CCS(=O)(=O)c1ccc(NC(=O)CC(NC(C)=O)c2ccccc2)cc1 (centres undefined)	11	1
COc1cc2c(cc1OC)CN(S(=O)(=O)c1ccc(OC)c(N3CCN(C(=O)c4cccc(C#N)c4)CC3)c1)CC2	5	-2
CCOc1ccc(C(c2c(O)cc(C)n(CC)c2=O)N2CCN(c3ccccc3)CC2)cc1 (centres undefined)	4	-3
CCC(C)C(NC(=O)c1ccccc1OC)C(=O)Nc1nnc(-c2ccc(OC)cc2)s1 (centres undefined)	3	10
CC(C)CN1C(=O)C(c2c(C(C)C)[nH]n(-c3ccc(F)cc3)c2=O)=C([n+]2ccccc2)C1=O	14	16
CCCCOc1ccc(S(=O)(=O)NC(=O)C2(C)CCN2C(=O)C2CCCCC2)cc1 (centres undefined)	4	1
Cc1cc(C2CCCCC2)n(O)c(=O)c1	-5&0&-7	-13&-7&-8
CCSc1nnc2c(n1)OC(c1ccncc1)Nc1ccc(Br)cc1-2 (centres undefined)	-1	-5
Cc1ccc(C(C)NC(=O)CN2CCC(O)(CN3CCCC3)CC2)cc1 (centres undefined)	3	2
Cc1cc(OCC(=O)NNC(=O)C2COc3ccccc3O2)cc(C)c1Cl (centres undefined)	0	-4
CSc1nsc(SCc2ccc(C(=O)N3C4CCC3CC(Oc3cccc(C#N)c3)C4)cc2)n1 (centres undefined)	9	-6
Cc1nc(C(=O)NCCCc2nnc(N)s2)cs1	3	2
O=C(Nc1cc2c(cc1Br)OCCO2)c1cc2ccccc2o1	2	-3
COc1ccccc1C(=O)N(CC(=O)N1CCc2sccc2C1c1ccc(Cl)cc1Cl)C1CCCCC1 (centres undefined)	15	15
COC(=O)c1c(C)[nH]c(C(=O)C(C)OC(=O)C2CCC2)c1C (centres undefined)	1	0
O=C(CSc1ncnc2c1nnn2Cc1ccc(F)cc1)N1CCCCCC1	16	18
CCN1CCCC1CNC(=O)CCC1CCN(C2Cc3ccccc3C2)CC1 (centres undefined)	0	-2
OCCn1ccnc1-c1cccc(Oc2ccccc2)c1	17	8
Cc1oc2nc[nH]c(=O)c2c1C(=O)OC(C)C(=O)NC1CCCC1 (centres undefined)	1	30
COc1ccc(C2=NOC(CN(Cc3cccc(Cl)c3)C(=O)C3CCC3)C2)cc1 (centres undefined)	22	33

15 of the compounds above, with values under each structure:
Results follow in this order: NPYLR7 ag | NPYLR7 ag max-min
- CCCCOc1ccc(S(=O)(=O)NC(=O)C2(C)CCN2C(=O)C2CCCCC2)cc1 (centres undefined)
  4 | 1
- Cc1cc(C2CCCCC2)n(O)c(=O)c1
  -5&0&-7 | -13&-7&-8
- CCSc1nnc2c(n1)OC(c1ccncc1)Nc1ccc(Br)cc1-2 (centres undefined)
  -1 | -5
- Cc1ccc(C(C)NC(=O)CN2CCC(O)(CN3CCCC3)CC2)cc1 (centres undefined)
  3 | 2
- Cc1cc(OCC(=O)NNC(=O)C2COc3ccccc3O2)cc(C)c1Cl (centres undefined)
  0 | -4
- CSc1nsc(SCc2ccc(C(=O)N3C4CCC3CC(Oc3cccc(C#N)c3)C4)cc2)n1 (centres undefined)
  9 | -6
- Cc1nc(C(=O)NCCCc2nnc(N)s2)cs1
  3 | 2
- O=C(Nc1cc2c(cc1Br)OCCO2)c1cc2ccccc2o1
  2 | -3
- COc1ccccc1C(=O)N(CC(=O)N1CCc2sccc2C1c1ccc(Cl)cc1Cl)C1CCCCC1 (centres undefined)
  15 | 15
- COC(=O)c1c(C)[nH]c(C(=O)C(C)OC(=O)C2CCC2)c1C (centres undefined)
  1 | 0
- O=C(CSc1ncnc2c1nnn2Cc1ccc(F)cc1)N1CCCCCC1
  16 | 18
- CCN1CCCC1CNC(=O)CCC1CCN(C2Cc3ccccc3C2)CC1 (centres undefined)
  0 | -2
- OCCn1ccnc1-c1cccc(Oc2ccccc2)c1
  17 | 8
- Cc1oc2nc[nH]c(=O)c2c1C(=O)OC(C)C(=O)NC1CCCC1 (centres undefined)
  1 | 30
- COc1ccc(C2=NOC(CN(Cc3cccc(Cl)c3)C(=O)C3CCC3)C2)cc1 (centres undefined)
  22 | 33

The results go on.
SMILES	NPYLR7 ag	NPYLR7 ag max-min
Cc1ccccc1C(=O)NCC1CN(c2cccc(Cl)c2)C(=O)O1 (centres undefined)	2	7
CCCCN(Cc1cccn1Cc1cccc(C)c1)C(=O)CN(CCC)C(=O)c1ccc(C(C)(C)C)cc1	-1	15
COc1ccc(CNC(=O)Cn2nc(C(F)(F)F)c(Br)c2C)cc1	-2	-6
CC(C)CCN(CC(=O)N1CCNC1=O)C1CC1	0	-3
CC(C)NC(=O)c1nc(Cn2c(C(F)F)nc3ccccc32)no1	9	10
N#CCSCC(=O)Nc1ccc(C#N)cc1	0	1
O=C(NC1CCCCC1)c1cn[nH]c1-c1ccc(F)cc1	-2	-2
Nc1cc(-c2ccc(Cl)cc2)nn1-c1ccc(C(=O)Nc2cccc(Oc3ccccc3)c2)cc1	-7	-10
COc1cc(Cl)ccc1C(=O)NC1CCc2cnn(C(C)C)c2C1 (centres undefined)	-2	-2
COc1ccccc1-c1cccc(-c2cccc(NC(=O)c3ccc(F)cc3C(F)(F)F)c2)n1	24	25
Cc1ccc(C)c(-n2c(CNC(=O)c3ccco3)nnc2SCC(=O)Nc2nc3ccccc3s2)c1	14	7
Cc1cccc(Cn2cccc2CN(CCN2CCOCC2)Cc2ccc(Cl)cc2Cl)c1	1	2
CC(C)(C)CC(=O)NCCN1CCn2cc(OCc3ccccc3)c(=O)cc2C1=O	10	0
O=C(NCCOc1ccc(-c2ccccc2)nn1)C1c2ccccc2Oc2ccccc21	-4	-3
COCCNC(=O)NC(=O)COC(=O)c1oc2ccccc2c1C	10	9
COC(=O)c1ccc(OCCCCOc2ccccc2OC)cc1	-3	-3
CSCC(C)NCCCc1nc2ccc(F)cc2[nH]1 (centres undefined)	5	2
O=C(c1ccco1)N1CCNCC1	5	4

Only part of the results is shown; the hit share may differ from the screen's.
